HIV Env fusion – blocks HIV Env-driven cell-cell fusion; inhibition, % at 12.3 µM; hit rate 1.1% among 360,000; HeLa-JRFL Env/CEM21 cell fusion, luciferase; AID 651610;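 active means mean replicate inhibition score of at least 50 and every replicate individually at or above 50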;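 further: 0% = plate neutral controls and 100% = maraviroc near 300 nM; one replicate is shown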
UUG fidelity – modulators of start codon recognition fidelity in yeast | AID 602363 | activity score, % at 18.7 µM | hit rate 0.13% among 350,000 | S. cerevisiae UUG-firefly luciferase reporter, luminescence/redox ratio;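 active means replicate mean at a twofold rise or more, about +100% in these data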;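 further: firefly luciferase made from a UUG start codon reports start codon fidelity; reporter light over untreated wells divided by growth signal over untreated wells; some hits fall short of that in this replicate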
Active calls of the source: *; [ ] = another dose, or the depositor's remark. The list is partial, so the mix of outcomes need not match the whole.

Results follow in this order: HIV Env fusion | UUG fidelity
- C[C@@H]1CCCCO[C@H](CN(C)Cc2ccncc2)[C@H](C)CN([C@H](C)CO)C(=O)c2cc(NC(=O)Nc3ccc(F)cc3)ccc2O1
    4.6[16.7 µM] | -1.7
- COCC(=O)N[C@H]1CC[C@@H](CC(=O)N2CCCCC2)O[C@@H]1CO
    12.6[16.7 µM] | -6.0
- COc1ccc(S(=O)(=O)Nc2ccc3c(c2)C(=O)N([C@H](C)CO)C[C@H](C)[C@H](CN(C)CC2CCCCC2)OCCCC[C@H](C)O3)cc1
    1.7[16.7 µM] | 29.1
- CC(C)NC(=O)N(C)C[C@@H]1OCCCC[C@H](C)Oc2ccc(NS(C)(=O)=O)cc2C(=O)N([C@@H](C)CO)C[C@@H]1C
    -0.4[16.7 µM] | 14.9
- CO[C@H]1CN(C)C(=O)c2ccc(NS(=O)(=O)c3cn(C)cn3)cc2OC[C@@H](C)N(C)C[C@H]1C
    -12.1[16.7 µM] | -6.7
- COc1ccccc1C#Cc1cnc2c(c1)C(=O)N([C@H](C)CO)C[C@H](C)[C@H](CN(C)C(=O)CN(C)C)O2
    24.3[16.7 µM] | -3.4
- CCCNC(=O)N1C[C@H](O)COC[C@@H]2O[C@@H](CC(=O)NCc3ccc(Cl)c(Cl)c3)CC[C@H]21
    10.9[16.7 µM] | 12.5
- CN1C(=O)c2cc(NC(=O)c3ccccc3)ccc2OC[C@@H]2O[C@@H](CC(=O)NCC3CC3)CC[C@@H]21
    9.3[16.7 µM] | 7.3
- COc1ccc(NC(=O)N(C)C[C@H]2Oc3c(NS(=O)(=O)c4ccc(C)cc4)cccc3C(=O)N([C@H](C)CO)C[C@H]2C)cc1
    -2.5[16.7 µM] | 1.3
- O=C(CN1CCOCC1)N[C@@H]1CC[C@H](CCNC(=O)Nc2cc(F)ccc2F)O[C@H]1CO
    -4.6[16.7 µM] | 40.5
- C[C@H](CO)N1C[C@H](C)[C@@H](CN(C)C)Oc2ncc(-c3ccccc3F)cc2C1=O
    -9.8[16.7 µM] | -6.5
- COc1ccc(NC(=O)Nc2ccc3c(c2)[C@@H]2C[C@H](CC(=O)N4CCc5ccccc5C4)O[C@@H](CO)[C@@H]2O3)cc1
    6.3[16.7 µM] | -19.2
- C[C@H]1CN([C@@H](C)CO)C(=O)Cc2cc(NS(=O)(=O)c3cn(C)cn3)ccc2O[C@@H]1CN(C)CC1CC1
    -21.4[16.7 µM] | -13.6
- COCC(=O)N1[C@@H](C#N)[C@@H](c2ccc(C3=CCCCC3)cc2)[C@@H]1CO
    -8.2[16.7 µM] | 1.0
- COc1ccc(S(=O)(=O)NC2CCN(Cc3ccc(OCCO)cc3)CC2)cc1
    -8.1[16.7 µM] | -8.5
- COc1ccc(COCC23N=C4SCCCN4[C@H](c4ccccc4O2)[C@H]3CO)cc1
    -24.1[16.7 µM] | -8.2
- C[C@@H]1CCCCO[C@@H](CN(C)C(=O)Cc2ccccc2)[C@@H](C)CN([C@H](C)CO)C(=O)c2cc(NC(=O)Nc3ccc4c(c3)OCO4)ccc2O1
    -9.6[16.7 µM] | -10.6
- C[C@@H]1CN([C@@H](C)CO)S(=O)(=O)c2ccc(-c3ccccc3)cc2O[C@@H]1CN(C)C(=O)CN(C)C
    -4.5[16.7 µM] | 6.1
- COc1ccc(S(=O)(=O)N(C)C[C@@H]2Oc3ccc(NC(=O)Cc4cn(C)c5ccccc45)cc3CC(=O)N([C@H](C)CO)C[C@H]2C)cc1
    4.0[16.7 µM] | -3.3
- COc1ccc(NC(=O)N(C)C[C@H]2Oc3ccc(NC(=O)Nc4ccccc4)cc3CC(=O)N([C@H](C)CO)C[C@@H]2C)cc1
    -0.5[16.7 µM] | 47.7
- CC(=O)N(C)C[C@@H]1Oc2cc(C#CC3CC3)ccc2S(=O)(=O)N([C@H](C)CO)C[C@@H]1C
    35.4[16.7 µM] | -2.6
- COc1ccc(CN(C)C[C@@H]2OCCCC[C@@H](C)Oc3ccc(NS(=O)(=O)c4cccs4)cc3C(=O)N([C@H](C)CO)C[C@@H]2C)cc1
    -10.4[16.7 µM] | 9.8
- CNC(=O)C[C@@H]1CC[C@@H]2[C@@H](COc3ccc(NC(=O)NC4CCCC4)cc3C(=O)N2C)O1
    -4.7[16.7 µM] | -5.6
- CC(C)C#Cc1cnc2c(c1)C(=O)N([C@H](C)CO)C[C@H](C)[C@@H](CN(C)C(=O)c1ccc3c(c1)OCO3)O2
    10.9[16.7 µM] | -8.4
- CCCNC(=O)C[C@H]1C[C@@H]2c3cc(NS(=O)(=O)c4ccc(OC)cc4)ccc3O[C@@H]2[C@@H](CO)O1
    -0.3[16.7 µM] | -3.7
- CCCC#Cc1cnc2c(c1)C(=O)N([C@H](C)CO)C[C@H](C)[C@H](CN(C)C(=O)c1ccccc1)O2
    7.6[16.7 µM] | 52.1
- CC(=O)N(C)C[C@@H]1Oc2cc(C#CC3CCCC3)ccc2S(=O)(=O)N([C@@H](C)CO)C[C@H]1C
    10.8[16.7 µM] | 4.4
- COCC#Cc1cnc2c(c1)C(=O)N([C@@H](C)CO)C[C@@H](C)[C@@H](CN(C)C(=O)Cc1ccncc1)O2
    -17.1[16.7 µM] | 3.9
- C[C@H](CO)N1C[C@H](C)[C@H](CN(C)C(=O)Nc2cccc3ccccc23)Oc2ncc(C#Cc3ccccc3)cc2C1=O
    4.9[16.7 µM] | -10.0
- Cc1ccc(S(=O)(=O)N(C)C[C@H]2Oc3c(NC(=O)C4CCOCC4)cccc3C(=O)N([C@H](C)CO)C[C@@H]2C)cc1
    -10.0[16.7 µM] | 5.1
- COCC#Cc1ccc2c(c1)O[C@H](CN(C)Cc1ccccc1F)[C@H](C)CN([C@@H](C)CO)S2(=O)=O
    34.4[16.7 µM] | -10.6
- C[C@@H]1CN([C@H](C)CO)C(=O)c2cc(N(C)C)ccc2O[C@@H](C)CCCCO[C@H]1CN(C)S(C)(=O)=O
    -13.2[16.7 µM] | 26.8
- CO[C@@H]1CN(C)C(=O)c2ccc(NS(=O)(=O)c3ccc(C)cc3)cc2OC[C@@H](C)N(C)C[C@@H]1C
    -14.4[16.7 µM] | 1.1
- CO[C@@H]1CN(C)C(=O)c2ccc(NS(=O)(=O)CC(F)(F)F)cc2OC[C@@H](C)N(C(=O)c2ccc3c(c2)OCO3)C[C@H]1C
    -2.6[16.7 µM] | -3.4
- Cc1noc(C)c1S(=O)(=O)Nc1ccc2c(c1)CC(=O)N([C@@H](C)CO)C[C@H](C)[C@H](CN(C)CC1CC1)O2
    21.6[16.7 µM] | 2.1
- COc1ccccc1S(=O)(=O)N[C@@H]1C=C[C@@H](CC(=O)N2CCN(C)CC2)O[C@@H]1CO
    -6.9[16.7 µM] | -3.1
- C[C@H]1CN([C@@H](C)CO)S(=O)(=O)c2ccc(C#Cc3cccnc3)cc2O[C@@H]1CN(C)C(=O)C1CC1
    20.5[16.7 µM] | -2.6
- Cc1noc(C)c1S(=O)(=O)N(C)C[C@H]1Oc2ccc(NC(=O)Cc3cn(C)c4ccccc34)cc2CC(=O)N([C@@H](C)CO)C[C@H]1C
    0.5[16.7 µM] | -11.7
- COc1ccc(S(=O)(=O)N(C)C[C@@H]2Oc3cc(C#CC4CC4)ccc3S(=O)(=O)N([C@@H](C)CO)C[C@H]2C)cc1
    14.8[16.7 µM] | -16.5
- COc1ccc(NC(=O)Nc2ccc3c(c2)C(=O)N([C@H](C)CO)C[C@@H](C)[C@H](CN(C)C(=O)NC2CCCCC2)O3)cc1
    14.6[16.7 µM] | 4.8
- CCNC(=O)C[C@H]1CC[C@H]2[C@@H](COc3ccc(NC(=O)Nc4ccccc4OC)cc3C(=O)N2C)O1
    -2.6[16.7 µM] | 14.8
- Cc1ccccc1-c1cnc2c(c1)C(=O)N([C@@H](C)CO)C[C@@H](C)[C@H](CN(C)Cc1cncnc1)O2
    1.9[16.7 µM] | 16.0
- COc1ccccc1-c1cnc2c(c1)C(=O)N([C@@H](C)CO)C[C@@H](C)[C@@H](CN(C)C(=O)c1ccccc1)O2
    10.4[16.7 µM] | -0.9
- COc1ccc(NC(=O)N(C)C[C@H]2Oc3ccc(NC(=O)C4CCCCC4)cc3CC(=O)N([C@@H](C)CO)C[C@H]2C)cc1
    -4.5[16.7 µM] | -3.5
- C[C@H](CO)N1C[C@H](C)[C@@H](CN(C)CC2CCOCC2)Oc2ncc(C#Cc3ccccn3)cc2C1=O
    4.3[16.7 µM] | 4.0
- CCC(=O)N[C@H]1C=C[C@H](CC(=O)NCc2cc(F)cc(F)c2)O[C@H]1CO
    4.1[16.7 µM] | 0.7
- O=C(NCC[C@@H]1CC[C@H](NC(=O)C2CCC2)[C@@H](CO)O1)c1cc(Cl)cc(Cl)c1
    6.1[16.7 µM] | 16.9
- C[C@@H]1CCCCO[C@H](CN(C)S(=O)(=O)c2ccc(F)cc2)[C@@H](C)CN([C@@H](C)CO)C(=O)c2cc(NC(=O)Nc3ccc(F)cc3)ccc2O1
    23.2[16.7 µM] | -3.5
- COc1ccc(NC(=O)N(C)C[C@H]2OCCCC[C@H](C)Oc3ccc(NC(=O)CCCN(C)C)cc3C(=O)N([C@H](C)CO)C[C@@H]2C)cc1
    -6.7[16.7 µM] | 8.2
- CCNC(=O)C[C@H]1CC[C@H]2[C@H](COc3ccc(NC(=O)Cc4ccccc4)cc3C(=O)N2C)O1
    -14.2[16.7 µM] | -9.4
- O=C(N[C@@H]1CC[C@@H](CCNS(=O)(=O)c2ccc(F)cc2)O[C@H]1CO)C1CC1
    -1.4[16.7 µM] | -8.3
- CC(C)NC(=O)N(C)C[C@@H]1Oc2ccc(NS(=O)(=O)c3cn(C)cn3)cc2C(=O)N([C@H](C)CO)C[C@H]1C
    0.0[16.7 µM] | -4.6
- C[C@H](CO)N1C[C@H](C)[C@H](CN(C)Cc2ccc(C(=O)O)cc2)Oc2ccc(NS(=O)(=O)c3cn(C)cn3)cc2CC1=O
    -3.1[16.7 µM] | -12.2
- N#C[C@H]1[C@@H](c2ccc(/C=C/c3ccccc3)cc2)[C@@H](CO)N1C(=O)Cc1ccccn1
    -1.8[16.7 µM] | 5.3
- CC(=O)N(C)C[C@@H]1Oc2cc(C#Cc3cccnc3)ccc2S(=O)(=O)N([C@H](C)CO)C[C@H]1C
    30.3[16.7 µM] | 28.7
- O=C(N[C@@H]1CC[C@H](CCNS(=O)(=O)Cc2ccccc2)O[C@@H]1CO)c1ccc2c(c1)OCO2
    -8.0[16.7 µM] | 7.8
- CC(C)NC(=O)N(C)C[C@H]1Oc2ccc(NC(=O)Nc3cccc4ccccc34)cc2C(=O)N([C@@H](C)CO)C[C@H]1C
    11.9[16.7 µM] | 3.1
- CN(C)CCCNC(=O)C[C@H]1CC[C@H](NS(=O)(=O)c2ccc(F)cc2)[C@@H](CO)O1
    -14.4[16.7 µM] | -1.4
- C/C=C/c1ccc2c(c1)O[C@H](CN(C)S(=O)(=O)c1ccccc1OC)[C@H](C)CN([C@H](C)CO)S2(=O)=O
    2.5[16.7 µM] | 21.0
- Cc1ccc(S(=O)(=O)N[C@H]2CC[C@H](CC(=O)NCc3ccc(Cl)c(Cl)c3)O[C@@H]2CO)cc1
    32.8[16.7 µM] | -8.1

Ordered by formula weight (high to low): part of the list above.
Results follow in this order: HIV Env fusion | UUG fidelity
- COc1ccccc1-c1cnc2c(c1)C(=O)N([C@@H](C)CO)C[C@@H](C)[C@@H](CN(C)C(=O)c1ccccc1)O2
    10.4[16.7 µM] | -0.9
- CCNC(=O)C[C@H]1CC[C@H]2[C@@H](COc3ccc(NC(=O)Nc4ccccc4OC)cc3C(=O)N2C)O1
    -2.6[16.7 µM] | 14.8
- C[C@H](CO)N1C[C@H](C)[C@@H](CN(C)CC2CCOCC2)Oc2ncc(C#Cc3ccccn3)cc2C1=O
    4.3[16.7 µM] | 4.0
- O=C(N[C@@H]1CC[C@H](CCNS(=O)(=O)Cc2ccccc2)O[C@@H]1CO)c1ccc2c(c1)OCO2
    -8.0[16.7 µM] | 7.8
- CC(=O)N(C)C[C@@H]1Oc2cc(C#Cc3cccnc3)ccc2S(=O)(=O)N([C@H](C)CO)C[C@H]1C
    30.3[16.7 µM] | 28.7
- O=C(NCC[C@@H]1CC[C@H](NC(=O)C2CCC2)[C@@H](CO)O1)c1cc(Cl)cc(Cl)c1
    6.1[16.7 µM] | 16.9

Further entries follow:
Results follow in this order: HIV Env fusion | UUG fidelity
- CCCC#Cc1ccc2c(c1)O[C@@H](CN(C)C(=O)COC)[C@@H](C)CN([C@@H](C)CO)S2(=O)=O
    -11.2[16.7 µM] | 5.8
- COc1ccc(S(=O)(=O)N(C)C[C@@H]2Oc3cc(C#CC4CCCC4)ccc3S(=O)(=O)N([C@H](C)CO)C[C@@H]2C)cc1
    16.9[16.7 µM] | -0.8
- C[C@H](CO)N1C[C@H](C)[C@H](CN(C)S(=O)(=O)c2cn(C)cn2)Oc2ccc(NC(=O)Nc3ccc4c(c3)OCO4)cc2CC1=O
    -189.8[16.7 µM] | -7.3
- Cc1noc(C)c1S(=O)(=O)Nc1ccc2c(c1)C(=O)N([C@@H](C)CO)C[C@@H](C)[C@H](CN(C)Cc1ccc(Cl)c(Cl)c1)O2
    -20.0[16.7 µM] | -0.2
- C[C@@H]1CN([C@@H](C)CO)C(=O)Cc2cc(NS(C)(=O)=O)ccc2O[C@@H]1CN(C)Cc1ccc(C(F)(F)F)cc1
    -22.8[16.7 µM] | 5.8
- C[C@@H]1CCCCO[C@H](CN(C)Cc2ccc3c(c2)OCO3)[C@@H](C)CN([C@H](C)CO)C(=O)c2cc(NS(=O)(=O)c3ccc(Cl)cc3)ccc2O1
    -25.9[16.7 µM] | -9.8
- COc1ccc(S(=O)(=O)N[C@H]2CC[C@@H](CCn3cc(C(C)C)nn3)O[C@@H]2CO)cc1
    10.0[16.7 µM] | 0.5
- COc1cccc(CNC(=O)C[C@H]2CC[C@@H](NS(=O)(=O)c3ccccc3OC)[C@@H](CO)O2)c1
    25.2[16.7 µM] | -4.3

Screening data as filed in PubChem.
